PINK1 modulator = A Quantitative High throughput Screen to Identify Chemical Modulators of PINK1 Expression; PINK1 immunofluorescence, high-content cytometry, 24 h; Potency, µM (doses to about 76.6 µM), for the others: at the top dose activation (PINK1 increase), most hits filed as activators; 410,000 tested, 0.2% active; AID 624263, 2012; active = well fitted activation curve with a large enough effect; inconclusive = small, poorly fitted or top-dose-only effect; inactive = flat fitted curve, though single readings scatter; cell line not stated here;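 note: potency is the fitted concentration of half-maximal effect; % of control where 0% means no effect; nearly all actives have a fitted effect of over 65% in size; a mitochondrial uncoupler was the plate control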
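Readout is PINK1 immunofluorescence, quantified alongside mitochondrial, cell and nuclear markers by laser-scanning microplate cytometry. Cells from a stable line were exposed to compound titrations (5 concentrations) for 24 hours, with CCCP controls.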
TRPML1 ag = qHTS for Agonists of the Human Mucolipin Transient Receptor Potential 1 (TRPML1) | TRPML1-expressing cells, Ca2+ dye fluorescence, FDSS; host cell line not named in the record; reference of the full effect not given here | activation, % (concentration not given with the values) | 410,000 tested, 0.12% active | AID 624414, 2012; in the data active = activation above about 50%; inconclusive = about 30% to 50%; inactive = below about 30%; note: 0% is about no effect; the text of the record puts the active cut at 80%
Target sequence (Q9GZU1 whole entry, looked up): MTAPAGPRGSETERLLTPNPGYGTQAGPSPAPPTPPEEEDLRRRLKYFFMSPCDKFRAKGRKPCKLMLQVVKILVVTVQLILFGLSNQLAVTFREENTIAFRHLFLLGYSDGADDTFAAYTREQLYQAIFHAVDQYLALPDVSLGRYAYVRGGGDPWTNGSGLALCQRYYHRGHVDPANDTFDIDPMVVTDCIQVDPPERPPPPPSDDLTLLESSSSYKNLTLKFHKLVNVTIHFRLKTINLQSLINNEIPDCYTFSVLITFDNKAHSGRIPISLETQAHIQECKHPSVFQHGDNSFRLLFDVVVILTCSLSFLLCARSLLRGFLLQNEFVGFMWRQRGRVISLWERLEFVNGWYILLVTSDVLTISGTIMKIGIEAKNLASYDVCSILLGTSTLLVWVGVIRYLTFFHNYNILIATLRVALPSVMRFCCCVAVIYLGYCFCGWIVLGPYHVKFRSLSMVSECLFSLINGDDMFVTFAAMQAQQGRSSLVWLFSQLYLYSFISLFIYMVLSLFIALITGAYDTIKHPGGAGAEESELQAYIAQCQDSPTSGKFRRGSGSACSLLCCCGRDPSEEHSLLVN
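Tet-induced TRPML1-DL cells, 1,500 per well, cultured overnight, were loaded with a no-wash Ca2+ dye for 45–90 min. Calcium fluorescence was recorded on the FDSS for 110 s after compound addition, before the EC80 agonist (4 uM 54-4) was added.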
Menin MLL FP FL = qHTS Assay for Inhibitors Targeting the Menin-MLL Interaction in MLL Related Leukemias: Competition With Fluorescein Labeled MLL-derived Peptide | Fluorescence polarization, fluorescein-MLL peptide displacement from menin | FP activity change, % at 61.4 µM | 290,000 tested, under 10 active | AID 1766, 2009; inconclusive = falling polarisation curve, or a change in total fluorescence; inactive = total fluorescence flat and polarisation flat or rising; no compound was filed as active; the % refers to the polarisation; negative = inhibition;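 note: % of control where 0% means no effect; inhibitors lower the polarisation; unlabelled MLL peptide was the positive control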
ClpP mod = qHTS Assay for Activators of ClpP; AID 651965, 2013; 340,000 tested, 1.9% active; Potency, µM (top dose mostly 57.5 µM), inactives show at the top dose activity change, negative = active; purified B. subtilis ClpP, FRET peptide cleavage, 20 min; active = well fitted falling curve with a large enough effect; inconclusive = small, poorly fitted or top-dose-only effect; inactive = no such curve, though single readings can be large or run the other way; note: potency is the fitted concentration of half-maximal effect; the source files actives as falling curves though it sought activators and does not explain the sign; nearly all actives have a fitted effect of over 65% in size; many hits overshoot -100%
Target sequence (P80244 whole entry, looked up): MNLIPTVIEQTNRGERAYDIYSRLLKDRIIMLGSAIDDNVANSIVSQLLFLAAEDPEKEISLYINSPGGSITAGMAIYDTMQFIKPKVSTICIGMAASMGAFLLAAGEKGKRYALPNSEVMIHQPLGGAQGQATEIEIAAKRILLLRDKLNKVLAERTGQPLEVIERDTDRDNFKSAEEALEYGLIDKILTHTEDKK
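Buffer: 100 mM Tris/HCl pH8, 100 mM KCl, 0.05% low protease BSA, 2.5% glycerol, 0.01% Tween-20. ClpP 10 microg/mL final; 20 min RT; delta FRET normalized to ADEP and DMSO controls.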
TRPV1 potentiator = HTS Assay for Compounds that Act as Potentiators of the Vanilloid Receptor 1; 320,000 tested, 0.02% active; TRPV1-expressing cells, Fluo-8 calcium influx, capsaicin EC20 potentiation; host cell line not named in the record; control for the full effect not named in the record; Transient receptor potential cation channel subfamily V member 1 (Homo sapiens), Q8NER1; AID 540277, 2011; potentiation, % at 8.33 µM; active means potentiation above 80%; inconclusive means 30% to 80%; inactive means below 30%; note: 0% is about no effect
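Cells expressing TRPV1 were dye-loaded with Fluo-8 and read kinetically: 10 s baseline, 3 min after compound (agonist portion), then 2 min after EC20 capsaicin (allosteric enhancer portion). Calcium-bound dye fluorescence at 480/520 nm.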
TRPML1 inh = qHTS for Inhibitors of the Human Mucolipin Transient Receptor Potential 1 (TRPML1); activity change, negative = inhibition, % (concentration not given with the values); Mucolipin-1 (Homo sapiens), Q9GZU1; TRPML1-inducible cells, Ca2+ dye fluorescence, FDSS; stronger effect = lower value; inhibition of EC80 agonist-evoked calcium signal; 390,000 tested, 0.02% active; in the data active means activity change below about -50%; inconclusive means about -30% to -50%; inactive means above about -30%;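 note: stimulus is agonist 54-4 at its EC80 concentration; % is set by controls: 0 for no effect and ±100 for the full control effect; compound concentration not given in the record; the text of the record puts the active cut at -80%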
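Calcium fluorescence in TRPML1-DL cells induced overnight with Tet: a 110 s read after compound pin addition, then a 110 s antagonist read after challenge with 54-4 at 4 uM final (EC80).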
Sfp PPTase inh = qHTS Assay for Inhibitors of Bacillus subtilis Sfp phosphopantetheinyl transferase (PPTase); 310,000 tested, 3.5% active; Potency, µM, for the others: max response, negative = inhibition, hits mostly inhibitors; AID 1490, 2009; Biochemical Sfp PPTase activity, qHTS; 4'-phosphopantetheinyl transferase ffp (Bacillus subtilis), Q9F4F7; active = well fitted inhibition curve with a large enough effect; inconclusive = small, poorly fitted or top-dose-only effect, or another doubt; inactive = no such curve, though single readings can be large or run the other way;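 note: the enzyme is Sfp with the accession as filed and its product quenches rhodamine fluorescence; potency is the fitted concentration of half-maximal effect; 0% = enzyme reaction without inhibitor and -100% = no enzyme wells; top concentration of the series not given in the record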
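Sfp 15 nM + cpd, 15 min RT; start w/ rhodamine-CoA 5 uM, BHQ-2-YbbR 12.5 uM (final); 50 mM Hepes pH 7.6, 10 mM MgCl2, 0.01% NP-40, 0.01% BSA; read 525/598 nm at 0 and 30 min.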
* hit, by the source's call; u = inconclusive; x = no result given; & = joins results of further samples; [ ] = another dose, or the depositor's remark.

SMILES	PINK1 modulator	TRPML1 ag	Menin MLL FP FL	ClpP mod	TRPV1 potentiator	TRPML1 inh	Sfp PPTase inh
C=CCN(CC=C)C(=S)Nc1ccc2nsnc2c1	-0.2%	1.8	u	-0.7%	9	23	13µM*
Cc1ccc2oc(=O)c(-c3ccc(O)cc3)c(C)c2c1	-0.4%	2.4	x	-2.1%	-10	16	x
O=C(NCCCN1CCCC1=O)c1ccc(Cl)c(Cl)c1	-0.5%	-1.2	0.8	x	-14	-13	-1%
CCC(C)[C@H](NC(=O)N1CC(=O)Nc2ccccc21)C(=O)NC(C)CCc1ccccc1 (stereo partly drawn)	0.1%	5.3	x	x	-6	-5	8%
CC(=O)Nc1ccc(NC(=O)CN2CCN(c3cccc(C(F)(F)F)c3)CC2)cc1	9.7%	1.1	-2.0	-6.8%	9	-5	11%
Cc1cc(OCC(=O)N(Cc2ccc(N(C)C)cc2)CC2CCCO2)ccc1Cl (stereo not drawn)	0.7%	1.6	x	-1.5%	x	17	x
CCOc1cc(C(Nc2cc(C)ccn2)c2ccc3cccnc3c2O)ccc1OC (stereo not drawn)	-0.3%	1.8	x	-0.5%	x	7	x
COc1ccc2c(Cl)c(C(=O)N/N=C/c3ccncc3)sc2c1	3.6%	-0.6	0.7	x	-18	3	-13%
COc1ccc(NC(=O)c2ccc3c(c2)OCO3)cc1	0.7%	-0.6	-1.1	-1.3%	-10	15	5%
CCOc1cc(/C=N/NC(=O)CSc2nncn2C)ccc1OCC(N)=O	3.1%	-0.7	0.9	0.0%	10	-8	9%
O=C(O)c1cccc(N2C(=O)Nc3ccccc3N2O)c1	-1.6%	0.2	1.8	u	-1	13	21%
Cc1cc(-c2nnco2)c(C)n1-c1ccc(F)cc1	-2.3%[38.3 µM]	1.1	1.7	-2.3%	-3	3	11%
O=[N+]([O-])c1cccc(/C(=N/N=C/c2ccccc2Br)C23CN4CN(CN(C4)C2)C3)c1	-0.9%	-0.4	5.8	0.3%	x	2	7%
CC(C)CNS(=O)(=O)c1cc(C(=O)N2CCOCC2)c(Cl)cc1Cl	-2.7%[38.3 µM]	0.0	1.5	-2.2%	2	-18	15%
Oc1ccccc1N1CCN(c2ncnc3scc(-c4ccccc4)c23)CC1	-0.5%	0.0	-0.9	x	1	17	3%
Cc1cc(C(=O)NNS(=O)(=O)c2cccc(Cl)c2)nn1C(C)(C)C	1.9%	-0.7	6.6	1.5%	11	-13	17%
Cc1ccc(NC(=O)CNC(=O)c2cccs2)cc1S(=O)(=O)Nc1ccc(Cl)cc1	0.8%	-0.5	-0.6	3.4%	-1	3	-10%
COc1ccc(C(=O)Nc2cc(C)nn2-c2cccc(F)c2)cc1OC	3.3%	1.3	3.2	-1.8%	4	7	10%
COCCn1c(C)cc(/C=N/NC(=O)c2cccnc2)c1C	2.6%	0.6	0.9	x	2	-3	-4%
O=C(NCCc1ccccc1)C(=O)NCCC1CCCCN1S(=O)(=O)c1ccccc1 (stereo not drawn)	-1.3%	2.1	x	-0.3%	-10	30	x

Next part; the last 2 above are carried over.
SMILES	PINK1 modulator	TRPML1 ag	Menin MLL FP FL	ClpP mod	TRPV1 potentiator	TRPML1 inh	Sfp PPTase inh
COCCn1c(C)cc(/C=N/NC(=O)c2cccnc2)c1C	2.6%	0.6	0.9	x	2	-3	-4%
O=C(NCCc1ccccc1)C(=O)NCCC1CCCCN1S(=O)(=O)c1ccccc1 (stereo not drawn)	-1.3%	2.1	x	-0.3%	-10	30	x
CCCCN1C(=O)C2C(c3ccc(OC)cc3O)NC(CC(C)C)(C(=O)O)C2C1=O (stereo not drawn)	-0.1%	0.2	4.3	-2.8%	5	-7	u
Cc1ccc2nc(NC(=S)NC(=O)c3cccs3)sc2c1	0.3%	2.0	2.1	-0.4%	5	-3	13%
CN(C(=O)c1ccccn1)c1nnc(-c2cccnc2)s1	-0.7%	-0.4	-2.2	99%	-11	12	2%
CC(C)(C)n1nnnc1C(c1cccnc1)N1CCN(C2CCCCC2)CC1 (stereo not drawn)	1.7%[38.3 µM]	0.1	1.1	1.5%	12	-4	8%
Cc1ccc2nc(SCC(=O)Nc3ccc4c(c3)OCO4)nc(=O)n2c1	2.3%	0.0	x	x	-13	-23	x
CCC1CCCCN1C(=O)c1c(-c2ccccc2)noc1C (stereo not drawn)	0.9%	-0.7	-1.3	-0.2%	u	-4	7%
Cc1ccc(C(=O)O)cc1-c1ccc(/C=C2\SC(=O)N(CC(=O)Nc3ccc4c(c3)OCO4)C2=O)o1	-0.2%	0.0	x	3.7%	1	34	-11%
O=C1N(Cc2cccnc2)C[C@@H]2C[C@@H](c3cccc(OC4CCCC4)c3)N3CCC[C@@]123	3.1%	0.3	11	x	3	5	-10%
CC(=O)c1ccc(NC(=O)COC(=O)CCc2ccc(S(=O)(=O)N3CCOCC3)cc2)cc1	0.8%	0.8	0.0	x	15	10	-1%
CN(c1nc2c(c(=O)n(C)c(=O)n2C)n1CC(=O)c1ccccc1)C1CCCCC1	0.5%	1.9	2.3	-0.2%	-15	8	5%
O=C(COC(=O)c1ccc([N+](=O)[O-])o1)Nc1ccc(Br)cc1F	0.6%	-0.2	x	-3.0%	x	-2	x
COC(=O)Cn1cc(C#N)c2ccccc21	-1.4%	-0.3	0.5	-4.5%	5	-5	1%
CC(=O)N1N=C(c2ccc(C)cc2)OC1c1cccnc1 (stereo not drawn)	-0.6%	-0.4	0.1	1.8%	18	-3	10%
Cc1cc(C(=O)OC(C(=O)Nc2cccc(C(F)(F)F)c2)c2ccccc2)c(C)o1 (stereo not drawn)	35µM*	0.6	4.2	-16%	-4	4	24%
COC(=O)c1ccc(OCCOc2ccccc2C)cc1	1.7%	4.7	3.7	1.0%	20	2	1%
COc1cnn(-c2ccc(C)cc2)c(=O)c1Cl	-1.5%	-0.1	0.0	x	-16	-3	14%
CC(=O)OC1=C(C(C)=O)N(Cc2ccccc2)S(=O)(=O)c2ccccc21	-0.2%	0.3	x	-3.1%	x	-10	x
Cc1ccc(C(=O)OCC(=O)NC2CCCCC2)cc1S(=O)(=O)N1CCCCC1	5.8%	4.3	x	0.5%	0	17	x
COc1ccccc1-c1ccc(/C=C2/C=C(CC(C)C)OC2=O)o1	6.7%	0.5	u	35µM*	18	4	50µM*
CCOc1ccc(C(=O)NC2C(=O)N3C(C(=O)O)=C(COC(C)=O)CSC23)cc1OCC (stereo not drawn)	0.9%	-0.2	x	-3.8%	11	0	x
CCCN1CNc2c(c(=O)[nH]c(=S)n2CCc2cccc(Cl)c2Cl)C1	0.5%	0.3	x	-3.7%	x	x	x
CCCCN1C(=O)C(C#N)CC2=C1CC(C)(C)CC2=O (stereo not drawn)	-0.9%	-0.6	x	-2.2%	x	24	x
CCOC(=O)C1=C(C)Nc2ccccc2N=C1NC(=O)C(c1ccccc1)c1ccccc1	4.4%	1.1	9.0	0.2%	12	8	7%
CCc1nccn1CCC(=O)NC1CC(C)(C)Cc2c1cnn2-c1ccc(OC)cc1 (stereo not drawn)	0.7%	-0.2	0.2	1.4%	10	-7	16%
CCc1ccc(CN(Cc2ccco2)c2cnc(S(C)(=O)=O)nc2C(=O)Nc2ccc(C)c(Cl)c2)cc1	0.6%	0.3	x	-2.4%	x	17	x
COc1ccc(-c2noc(CN3CCN(C(=O)c4cccs4)CC3)n2)c(OC)c1OC	-0.6%	0.7	x	-2.3%	15	-19	5%
CCCc1cc(=O)[nH]c(SCC(=O)c2c(N)n(C3CC3)c(=O)[nH]c2=O)n1	-1.5%	0.3	x	-1.3%	-1	9	x
Cc1noc(C)c1NC(=O)N(C)C[C@@H]1OCc2ccccc2-c2c(n(C)c3ccccc23)C(=O)N([C@H](C)CO)C[C@H]1C	0.7%	-0.5	x	u	x	13	x
Cc1ccc(-c2c(C)sc(=NC(=O)c3ccco3)n2C)cc1	-0.6%[38.3 µM]	1.6	4.4	-20%	-15	0	2%
O=C(c1cc(COc2ccc(F)c(F)c2)on1)N1CCSCC1	-3.2%	0.7	x	1.4%	-6	-4	11%
CC(C)N1CCC1(C)C(=O)Nc1cccc2ccccc12 (stereo not drawn)	2.3%	-1.2	x	-6.3%	x	x	x
O=C(C[n+]1cccc(I)c1)c1ccc(F)cc1	-0.5%	-0.2	x	0.4%	x	x	x
COc1ccc(OC)c(NC(=O)CSc2nnc(CNc3ccc(C)cc3C)o2)c1	-1.5%	0.5	0.3	-0.6%	6	14	-10%
CCOC(=O)N1CCN(C(=O)CN2C(=O)NC(C)(c3ccc4ccccc4c3)C2=O)CC1 (stereo not drawn)	-0.3%	0.9	x	0.6%	2	13	x
Cc1ccc(C)c(CSc2ccc3nnc(CCNS(=O)(=O)c4ccccc4)n3n2)c1	1.1%	0.0	x	-0.4%	x	4	x
Cc1ccc(CN(C(=O)COc2ccc(Cl)c(C)c2)c2ccccn2)o1	1.3%	2.0	x	-1.5%	x	9	x
COC(=O)c1ccc(NC(=O)c2cc3c(CO)cnc(C)c3oc2=Nc2cccc(C(N)=O)c2)cc1	4.3%	-0.2	-13	-1.5%	16	-9	0%
CCC1NC(=O)c2cccnc2-n2c1nc1cc(F)ccc1c2=O (stereo not drawn)	-0.6%	-0.4	x	-1.5%	x	9	x
CC(Sc1nnc(Nc2ccccc2)s1)C(=O)NC1CCCc2ccccc21 (stereo not drawn)	0.5%	0.7	-0.9	0.4%	4	2	-10%
Cc1ccc(-c2c(C(=O)NCc3ccc(F)cc3)oc(=O)c3ccccc23)cc1	3.6%&2.5%	0.9&4.6	-0.5	0.6%&-3.3%	-18	8&12	-5%
